Source: PubChem (National Center for Advancing Translational Sciences (NCATS))
RE007 growth inh – qHTS Assay for Inhibitors of the HIV-1 protein Vpr | S. pombe RE007 Vpr strain, BacTiter-Glo ATP luminescence, 24 h; control for the full effect not named in the record | Potency, µM (top dose mostly 92.2 µM), without a hit: top-dose activity change, negative = less growth | 360,000 tested, 0.21% active; active = well fitted falling curve with a large enough effect; inconclusive = small, poorly fitted or top-dose-only effect; inactive = no such curve, though single readings can be large or run the other way;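 also: % is scaled to controls: 0 for no effect and ±100 for the full control effect; nearly all actives have a fitted effect of over 50% in size; the assay follows cell death caused by Vpr and the record does not say whether a fall means rescue or toxicity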
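Fission yeast RE007 carrying one integrated HIV-1 vpr copy, seeded at OD 0.01 in PMG+AL medium with 23 nL pinned compound. Grown 24 h at 30 degrees; viability read by BacTiter-Glo luminescence after 5 min.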
Cruzain inh noDet – qHTS Assay for Promiscuous and Specific Inhibitors of Cruzain (without detergent). 200,000 tested, 2.3% active. purified cruzain, Z-FR-AMC fluorescence, no detergent. Cruzipain (Trypanosoma cruzi), P25779. Potency, µM, for the others: max response, negative = inhibition, hits mostly inhibitors; active = well fitted curve in the direction sought with a large enough effect; inconclusive = small, poorly fitted or top-dose-only effect, or another doubt; inactive = no such curve, though single readings can be large; an effect the other way counts as inactive or inconclusive;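 also: plate controls were enzyme without inhibitor for no effect and buffer without enzyme for full effect; nearly all actives have a fitted effect of over 40% in size; top concentration of the series not given in the record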
Target sequence (P25779 123-467 limits assumed): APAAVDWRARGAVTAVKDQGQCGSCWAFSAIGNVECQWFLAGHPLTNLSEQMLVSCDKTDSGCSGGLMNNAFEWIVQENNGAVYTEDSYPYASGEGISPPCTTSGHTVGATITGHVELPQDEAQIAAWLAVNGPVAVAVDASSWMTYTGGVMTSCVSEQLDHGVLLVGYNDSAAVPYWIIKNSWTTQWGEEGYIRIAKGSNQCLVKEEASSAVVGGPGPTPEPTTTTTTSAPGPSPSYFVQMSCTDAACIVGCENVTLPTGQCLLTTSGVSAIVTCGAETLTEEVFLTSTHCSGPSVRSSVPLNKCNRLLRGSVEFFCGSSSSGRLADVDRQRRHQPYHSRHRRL
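Detergent-free condition (0.00005% Triton X-100) in acetate buffer pH 5.5 with DTT. 1.5 nM enzyme and compound were pre-mixed 15 min, then 2 uM Z-FR-AMC substrate added; reaction progress from fluorescence change between first and third reads (60 s).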
Marburg entry inh – qHTS for inhibitors of binding or entry into cells for Marburg Virus; Marburg virus pseudotyped entry inhibition, cell reporter; control for the full effect not named in the record; about a third of the inactives were read at about 46 µM; Potency, µM (series often up to 37.8 µM), for inactives: at the top dose activity change, negative = inhibition, actives largely listed as inhibitors; 300,000 tested, 1.8% active; active = well fitted inhibition curve with a large enough effect; inconclusive = small, poorly fitted or top-dose-only effect, or effect the other way; inactive = flat fitted curve, though single readings scatter; tested in HEK293 cells; about a fifth of its hits are not listed in these tables; also: % is scaled to controls: 0 for no effect and ±100 for the full control effect; luciferase read-out
Lassa entry inh – qHTS for Inhibitors of binding or entry into cells for Lassa Virus; Lassa virus pseudotype entry inhibition, cell reporter; control for the full effect not named in the record; Potency, µM (series often up to 37.9 µM), for inactives: top-dose activity change, negative = inhibition, hits mostly inhibitors; 300,000 tested, 1.2% active; active means well fitted inhibition curve with a large enough effect; inconclusive means small, poorly fitted or top-dose-only effect, or effect the other way; inactive means flat fitted curve, though single readings scatter; tested in HEK293 cells; also: % is scaled to controls: 0 for no effect and ±100 for the full control effect; nearly all actives have a fitted effect of over 50% in size; luciferase read-out
SARS PLpro yeast – qHTS of Yeast-based Assay for SARS-CoV PLP. S. cerevisiae expressing SARS-CoV PLpro, growth rescue; control for the full effect not named in the record. AID 485353, 2010. Potency, µM (top dose mostly 32.9 µM), for the others: at the top dose activity, positive = growth rescue. 330,000 tested, 0.19% active; also: 0% is about no effect; nearly all actives have a fitted effect of over 55% in size; growth read by luminescence after 48 h
NS1 function inh – qHTS Assay for Inhibitors of Influenza NS1 Protein Function; S. cerevisiae slowed by influenza A NS1, growth recovery by OD600; Potency, µM (titrated, usually from 46.1 µM), for the others: at the highest dose activity, positive = more growth; 270,000 tested, 0.4% active; AID 2326, 2010; also: actives are rising curves; nearly all actives have a fitted effect of over 50% in size
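Recovery from NS1-induced slow growth read by OD600 in budding yeast switched to galactose assay medium (pH 6.0, -URA) at 1:100 dilution. Compound 23 nl per well; the matching strain lacking NS1 serves as control.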
StopGo reporter – High Throughput Screening for Foot and Mouth Disease Virus Antivirals; human cells with a luciferase reporter of 2A StopGo recoding; control for the full effect not named in the record; 410,000 tested, 1.2% active; Potency, µM (top dose mostly 57.9 µM), inactives show at the top dose signal change, negative = less light; active = well fitted falling curve with a large enough effect; inconclusive = small, poorly fitted or top-dose-only effect; inactive = no such curve, though single readings can be large or run the other way; tested in HEK293T cells; also: % is scaled to controls: 0 for no effect and ±100 for the full control effect; nearly all actives have a fitted effect of over 45% in size; luciferase light after 4 h
Cruzain Triton – qHTS Assay for Promiscuous and Specific Inhibitors of Cruzain (with detergent); 200,000 tested, 0.43% active; Potency, µM, inactives show max response, negative = inhibition, hits mostly inhibitors; purified cruzain, Z-FR-AMC fluorescence, 0.01% Triton; Cruzipain (Trypanosoma cruzi), P25779; active = well fitted curve in the direction sought with a large enough effect; inconclusive = small, poorly fitted or top-dose-only effect, or another doubt; inactive = no such curve, though single readings can be large; an effect the other way counts as inactive or inconclusive;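 also: plate controls were neutral wells for no effect and buffer without enzyme for full effect; nearly all actives have a fitted effect of over 40% in size; top concentration of the series not given in the record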
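Cysteine protease activity tested under reducing, mildly acidic conditions (100 mM sodium acetate pH 5.5, 5 mM DTT) plus 0.01% Triton X-100. Cruzain 1.5 nM; substrate Z-FR-AMC 2 uM; 15 min compound preincubation at room temperature.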
* hit, by the source's call; ? = inconclusive; . = not tested or not shown; & = joins results of further samples; [ ] = another dose, or the depositor's remark. Unless noted, calls follow the shape of the dose curve; as a rule, active means well fitted rising curve with a large enough effect; inconclusive means small, poorly fitted or top-dose-only effect; inactive means no such curve, though single readings can be large or run the other way. Potency is read from the fitted curve at half-maximal effect.

Sequence of screens – RE007 growth inh	Cruzain inh noDet	Marburg entry inh	Lassa entry inh	SARS PLpro yeast	NS1 function inh	StopGo reporter	Cruzain Triton
> COc1ccc(CC(=O)Nc2ccc(N3CCOCC3)cc2)cc1S(=O)(=O)N1CCOCC1
→ 0%	.	.	.	0%	3%	-13%	.
> CC(=O)C1=C(O)C(=O)N(c2ccc(Br)cn2)C1c1ccccc1[N+](=O)[O-] (stereo not drawn)
→ 7%	.	0%[46.1 µM]	?	1%	6%	-12%	.
> CCSCc1nc(N)nc(NCCc2ccccc2)n1
→ -12%	.	.	.	-8%	-3%	29%	.
> Cn1c(=O)c2c(SCC(=O)N3CCOCC3)nc(C3CC3)nc2n(C)c1=O
→ 5%	2%	.	.	-1%	6%	-22%	-4.6%
> CC1CCC2(CC1)NC(=O)N(CC(=O)c1cn(CCC#N)c3ccccc13)C2=O (stereo not drawn)
→ 29%	.	.	.	0%	1%	-7%	.
> COc1ccc(C)cc1NC(=S)N1CCN(c2ccccn2)CC1
→ 1%	-4%	?	11%	-23%	9%	-16%	6.5%
> Cc1cc(C)c(C)c(S(=O)(=O)N2CCN(C)CC2)c1C
→ 8%	.	1%[46.1 µM]	16%[46.1 µM]	0%	-1%	8%	.
> N#Cc1cc(-c2ccccc2)oc1NC(=O)c1ccccc1
→ 14%	2%	-4%	-12%	.	0%	-29%	-1.9%
> C=CCOc1ccc(/C=C/C(=O)OCC(=O)NNC(=O)c2ccccc2F)cc1
→ -6%	.	-23%	-19%	-2%	.	5%	.
> COc1cccc(NC(=O)Cc2ccccc2)c1
→ ?	-2%	5%	.	-5%	-5%	52%[activator]	2.1%
> COc1ccc(-n2nc(C(=O)Nc3ccc(C)cn3)c3c4ccccc4n(C)c3c2=O)cc1
→ .	-14%	-2%[46.1 µM]	?	.	.	-12%	-0.5%
> CCOC(=O)c1ccc(OCC2c3cc(OC)c(OC)cc3CCN2C(=O)c2ccc(S(=O)(=O)N3CCCC3)cc2)cc1 (stereo not drawn)
→ .	?	.	?	.	.	-8%	1.2%
> CCn1c(Cc2ccccc2)nnc1SCC(=O)Nc1ccc(S(N)(=O)=O)cc1
→ 10%	1%	15%	3%	-4%	-21%	.	2.2%
> CCn1c2ccccc2c2cc(N)ccc21
→ -24%	7.9µM*	-2%	9%	12%	?	-17%	-2.5%
> Cc1ccc(COc2ccc(/C=N/NC(=O)c3nnn(-c4nonc4N)c3COc3ccc(F)cc3)cc2)cc1
→ -7%	.	.	.	0%	1%	13%	.
> CC(NC(=O)CSc1nc(-c2ccccc2F)nc2cc(=O)[nH]n12)c1nc2ccccc2n1C (stereo not drawn)
→ .	-5%	.	24%[46.1 µM]	.	.	-23%	1.3%
> CCOC(=O)C(NC(=O)CC)(Nc1nc2c(s1)CCCC2)C(F)(F)F (stereo not drawn)
→ 8%	-3%	16%	15%	27%	-4%	0%	-4.4%
> Cc1cccc(-c2nn(-c3ccccc3)cc2C(=O)Nc2cccc(S(=O)(=O)NC3=NCCC3)c2)c1
→ -1%	.	-23%	-1%	-1%	.	56%[activator]	.
> COc1ccc2c(Cl)c(C(=O)NCCCn3ccnc3)sc2c1
→ -8%	-7%	?	1%	0%	-13%	14%	-9.7%
> Cc1cccc(C)c1NC(=O)COc1ccccc1C(=O)Nc1ccc(Br)cn1
→ -4%	?	?	13%	-2%	-12%	6%	-2.0%
> CCN(C(=O)c1ccco1)c1nc(CC(=O)Nc2ccc(Cl)cc2)cs1
→ -2%	?	-27%	-25%	-7%	-50%	6%	-8.4%
> COc1cc(/C=C/c2noc(-c3ccccc3O)n2)ccc1OC(C)=O
→ -4%	.	.	.	-1%	-3%	58%[activator]	.
> S=C(c1ccc(-c2ccc(Cl)c(Cl)c2)o1)N1CCOCC1
→ -15%	-2%	-22%	?	-14%	-5%	.	-7.4%
> COc1cc(OC)cc(-c2nc3ccccc3c(=O)o2)c1
→ 2%	16µM*	-1%	6%	3%	-2%	-5%	0.0%
> CCN1CCN(S(=O)(=O)c2ccc(Cl)c(C(=O)Nc3nnc(C)s3)c2)CC1
→ -1%	.	-18%[46.1 µM]	-12%	4%	.	-5%	.
> CCn1c(SCC(=O)Nc2nc(-c3ccccc3)cs2)nnc1-c1ccccc1O
→ 27%	-28%	?	?	1%	-131%	35µM*	-4.3%
> Cc1nnc(SC(C)C#N)n1-c1ccccc1 (stereo not drawn)
→ -14%	.	-16%[46.1 µM]	-4%[46.1 µM]	0%	5%	1%	.
> COc1ccc(S(=O)(=O)c2c(Nc3ccc(F)cc3)sc(C(=O)c3ccc4c(c3)OCO4)c2N)cc1
→ .	?	.	4%[46.1 µM]	.	.	0%	-2.1%
> COCCn1nnnc1C(C(C)C)N(Cc1cccnc1)Cc1ccccc1Cl (stereo not drawn)
→ -7%	9%	-14%&-14%	-14%	1%	-24%	?	2.2%
> COc1cccc(C2NC(=O)c3ccccc3O2)c1OC (stereo not drawn)
→ 4%	-9%	1%	1%	2%	-4%	-5%	-3.6%

An excerpt from above in order of formula weight, rising.
Sequence of screens – RE007 growth inh	Cruzain inh noDet	Marburg entry inh	Lassa entry inh	SARS PLpro yeast	NS1 function inh	StopGo reporter	Cruzain Triton
> COc1cc(OC)cc(-c2nc3ccccc3c(=O)o2)c1
→ 2%	16µM*	-1%	6%	3%	-2%	-5%	0.0%
> CCN(C(=O)c1ccco1)c1nc(CC(=O)Nc2ccc(Cl)cc2)cs1
→ -2%	?	-27%	-25%	-7%	-50%	6%	-8.4%
> COCCn1nnnc1C(C(C)C)N(Cc1cccnc1)Cc1ccccc1Cl (stereo not drawn)
→ -7%	9%	-14%&-14%	-14%	1%	-24%	?	2.2%

By substructure, the entries above containing bromine (two)
Sequence of screens – RE007 growth inh	Cruzain inh noDet	Marburg entry inh	Lassa entry inh	SARS PLpro yeast	NS1 function inh	StopGo reporter	Cruzain Triton
> CC(=O)C1=C(O)C(=O)N(c2ccc(Br)cn2)C1c1ccccc1[N+](=O)[O-] (stereo not drawn)
→ 7%	.	0%[46.1 µM]	?	1%	6%	-12%	.
> Cc1cccc(C)c1NC(=O)COc1ccccc1C(=O)Nc1ccc(Br)cn1
→ -4%	?	?	13%	-2%	-12%	6%	-2.0%

(continued)
| SMILES | RE007 growth inh | Cruzain inh noDet | Marburg entry inh | Lassa entry inh | SARS PLpro yeast | NS1 function inh | StopGo reporter | Cruzain Triton |
| --- | --- | --- | --- | --- | --- | --- | --- | --- |
| CN(C)S(=O)(=O)c1cc(NC(=O)CN2CCN(c3ccccc3)CC2)ccc1Cl | -7% | -6% | ? | 3.5µM* | 14% | -7% | -28% | -1.5% |
| Cc1ccc(C(=O)C(C)OC(=O)CN2C(=O)NC3(CCCC3)C2=O)cc1C (stereo not drawn) | 1% | . | 6% | 0% | 2% | . | 5% | . |
| CC(C)CN1CCN(Cc2ccc(C#CC(C)(C)O)cc2)CC1CCO (stereo not drawn) | 1% | . | ? | -27% | 2% | 4% | 14% | . |
| CN1C(=O)S/C(=C\c2ccccc2OCc2ccc(C(=O)O)cc2)C1=O | 3% | . | 11%[46.1 µM] | 3%[46.1 µM] | 2% | . | 18% | . |
| C[C@@H]1CC2C3CC=C4C[C@@H](O)CC[C@]4(C)C3CC[C@]2(C)[C@H]1O (stereo partly drawn) | 8% | . | -8%[46.1 µM] | 24%[46.1 µM] | -4% | . | 5% | . |
| Cc1cc(C)n2cc(COc3ccccc3)nc2n1 | -4% | 6% | ? | 21% | 1% | -1% | 12% | -3.2% |
| COc1ccccc1N1CCN(C(=O)c2oc3cc(C)cc(C)c3c2C)CC1 | 10% | ? | ? | -21% | -3% | -4% | -11% | -9.1% |
| Cc1ccc(NC(=O)C2CCN(S(=O)(=O)c3ccc4c(c3)NC(=O)C(C)S4)CC2)c(C)c1 (stereo not drawn) | 3% | . | ? | ? | -2% | -9% | -19% | . |
| Cc1onc(-c2ccccc2)c1C(=O)O/N=C(\N)c1ccc([N+](=O)[O-])o1 | -15% | . | . | . | -3% | -39% | ? | . |
| COc1ccc(/C=N/NC(=O)c2ccc[nH]2)cc1 | -11% | . | . | . | -3% | 1% | 51%[activator] | . |
| COc1ccc(S(=O)(=O)N2CCC(C(=O)Nc3cccc(Cl)c3)CC2)cc1OC | -7% | 11% | -26% | 2% | 1% | -2% | . | 1.5% |
| COc1cccc(NC(=O)c2cccs2)c1 | -26% | 9% | 6% | 15% | -23% | -99% | 51%[activator] | 3.8% |
| O=C(Nc1cccc(S(=O)(=O)N2CCCC2)c1)c1ccc2c(c1)OCO2 | -2% | 7% | 0% | -9% | 3% | 12% | -7% | -4.3% |
| COC(=O)C1C(=O)C2=C(CC1C)NC(C)=C(C(=O)OC(C)C)C2c1ccc(OC)c(O)c1 (stereo not drawn) | -4% | ? | 3% | -5% | 1% | 3% | 11% | 0.1% |
| CSc1ccccc1NC(=O)CCn1c(=O)oc2ccccc21 | -25% | . | . | . | 0% | 3% | -13% | . |
| CCN(CC)c1nc(SCC(=O)O)nc(N(CC)CC)n1 | 10% | -2% | 12% | -9% | 3% | -20% | -23% | 3.4% |
| Cc1c(O)c(S(=O)c2ccccc2)c(=O)n(-c2ccccc2)c1-c1ccccc1 (stereo not drawn) | 37% | 2% | 17% | -1% | 7% | 29% | -2% | 4.9% |
| COc1ccc(CCNC(=O)CCN2C(=O)C(C)Oc3ccc(C)cc32)cc1OC (stereo not drawn) | 15% | 4% | ? | -21% | 2% | 0% | 0% | 4.8% |
